High-throughput results deposited in PubChem by Johns Hopkins Ion Channel Center.
KCNQ2 inh: KCNQ2 potassium channel inhibitors, primary screen, cell-based, CHO-K1, FluxOR thallium flux, B-score (AID 2156); 20 min; active compounds read low; only compounds with negative scores are shown here; some inactives read as strong as hits; B-score at 10 µM; 310,000 tested, 1.1% active;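 active means fluorescence ratio B-score at most minus 3 library SDs, with starting brightness B-score within 2 library SDs, cut at about -5.5 in these data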
Target sequence (O88943 whole entry, looked up): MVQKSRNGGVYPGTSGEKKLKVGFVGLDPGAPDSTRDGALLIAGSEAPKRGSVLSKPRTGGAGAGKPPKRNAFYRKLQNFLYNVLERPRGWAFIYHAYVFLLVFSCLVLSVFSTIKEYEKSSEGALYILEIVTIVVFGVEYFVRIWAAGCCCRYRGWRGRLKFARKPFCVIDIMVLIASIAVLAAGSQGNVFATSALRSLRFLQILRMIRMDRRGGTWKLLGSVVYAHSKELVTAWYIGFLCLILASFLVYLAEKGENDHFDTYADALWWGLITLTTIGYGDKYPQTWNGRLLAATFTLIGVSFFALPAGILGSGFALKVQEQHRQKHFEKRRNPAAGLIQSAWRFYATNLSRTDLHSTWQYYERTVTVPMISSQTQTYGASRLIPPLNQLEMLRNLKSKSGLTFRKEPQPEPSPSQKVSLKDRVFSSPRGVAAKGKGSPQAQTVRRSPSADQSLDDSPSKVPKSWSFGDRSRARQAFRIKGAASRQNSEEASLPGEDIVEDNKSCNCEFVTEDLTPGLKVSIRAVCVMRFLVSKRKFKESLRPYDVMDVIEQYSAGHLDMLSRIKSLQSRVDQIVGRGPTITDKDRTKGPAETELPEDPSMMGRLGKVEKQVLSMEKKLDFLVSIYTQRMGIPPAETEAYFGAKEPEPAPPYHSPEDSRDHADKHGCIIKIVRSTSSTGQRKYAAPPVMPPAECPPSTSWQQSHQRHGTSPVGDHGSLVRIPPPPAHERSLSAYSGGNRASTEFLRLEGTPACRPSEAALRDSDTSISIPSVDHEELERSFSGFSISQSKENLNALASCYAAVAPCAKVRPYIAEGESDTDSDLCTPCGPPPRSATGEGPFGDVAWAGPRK
KCNQ2 inh baseline: second read-out of KCNQ2 inh, no call of its own (marks repeat the call); B-score; measured here: initial fluorescence intensity artifact check;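 brightness before thallium and not channel activity; 0 = typical well and far values either way flag optical interference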
Active calls of the source: *; i = inactive.

Value order: KCNQ2 inh, KCNQ2 inh baseline
O=c1c2c(-c3cccc([N+](=O)[O-])c3)ccnc2[nH]n1-c1ccccc1
    i, 0.09
CC1CCCC(C)N1C(=O)COC(=O)c1cc([N+](=O)[O-])ccc1N1CCOCC1 (configuration not stated)
    i, 1.47
CC(C)C[C@@H](CO)N1CCNCCC1=O
    i, 0.93
CCOC(=O)N/N=C\c1ccc(OC(=O)c2ccc3c(c2)OCO3)cc1
    i, -0.2
COc1ccc(/C=N\NC(=O)c2ccccc2OC)cc1COc1c(F)c(F)c(F)c(F)c1F
    i, -4.08
O=C(CN1C2CCC1CC(NC(=O)Nc1ccccc1)C2)NCc1ccco1 (configuration not stated)
    i, -0.52
COc1cc(C(=O)O[C@H]2C/C(C)=C/CC[C@]3(C)O[C@@H]3C(O)C2C(C)C)cc(OC)c1OC (some centres not stated)
    i, 0.06
CCCC1CCc2c(sc(N)c2C(N)=O)C1 (configuration not stated)
    i, 0.53
c1ccc(CC2CCN(C(c3cccs3)c3nnnn3C3CCCC3)CC2)cc1 (configuration not stated)
    i, 0.52
CCOC(=O)c1sc(N)c(C(=O)OCC)c1COC(=O)C1CC(=O)N(Cc2ccco2)C1 (configuration not stated)
    i, 1.75
COc1ccc(C(=O)NC2CCSC2=O)cc1 (configuration not stated)
    i, 0.02
CCOc1cc(/C=C2/C(=N)N3N=C(C)SC3=NC2=O)ccc1OS(=O)(=O)c1ccc(C)cc1
    i, 1.53
Cc1cc[n+](CC(=O)Nc2ccccc2)cc1
    i, 1.3
Cc1cc(C)c2nc(N3CCCC(C(=O)NCCN4CCOCC4)C3)sc2c1 (configuration not stated)
    i, 0.55
O=C(CCN1C(=O)c2ccccc2C1=O)NCc1ccncc1
    i, -1.29
Cc1ccc(C(=O)Nc2c(C)n(C)n(-c3ccccc3)c2=O)cc1S(=O)(=O)N1CCOCC1
    i, 0.19
Cc1cc(Br)ccc1NC(=O)CN1CCN(c2ccccn2)CC1
    i, -0.6
COCCN(C(=O)CSc1nnc(-c2cccs2)n1N)c1c(N)n(Cc2ccccc2)c(=O)[nH]c1=O
    i, -0.73
c1ccc(Sc2cnc3ccccc3n2)cc1
    i, 0.06
O=C(Nc1ccc2nc[nH]c2c1)c1ccco1
    i, 0.14

Value order: KCNQ2 inh, KCNQ2 inh baseline
CN1CCN(CCC(=O)Nc2ccc3c(c2)OCO3)CC1
    i, -0.91
Cc1sc(NC(=O)Cn2c(=O)oc3ccccc32)nc1-c1ccc(Cl)cc1
    i, -0.01
CCn1c(NCCCO)nc2c(c1=O)C(C)(CC)Cc1ccccc1-2 (configuration not stated)
    i, -0.95
C/C(=N/NC(=O)CNC(=O)/C=C/c1ccco1)c1ccc(Cl)cc1
    i, -0.15
COC(=O)c1c(NC(=O)c2ccccc2OC)sc(C(=O)N2CCOCC2)c1C
    i, 0.44
NC(=O)CC1NC(=O)c2ccccc21 (configuration not stated)
    i, 0.85
CSC(=Nc1cccc(C)c1)NC#N
    i, -1.01
CC/C(=N\N=C1\SC(C)C(=O)N1Cc1ccco1)c1ccccc1 (configuration not stated)
    i, -0.61
COc1ccc(C2(c3ccc(OC)cc3)NC(=O)N(CC(=O)Nc3ccccc3C)C2=O)cc1
    i, 0.09
NC1=NC(=Nc2ccc(S(=O)(=O)N3CCOCC3)cc2)c2ccccc21
    i, -1.56
CCC1Nc2ncnc(N3CCN(c4ccccn4)CC3)c2N(Cc2ccc(Cl)cc2)C1=O (configuration not stated)
    i, -0.73
CCOC(=O)C1=C(C)NC(=O)NC1/C=C\c1ccccc1 (configuration not stated)
    i, -0.84
COc1ccc(NC(=O)CC2(Cc3ccccc3)CCOC(C)(C)C2)cc1 (configuration not stated)
    i, 2.89
CCOc1ccccc1NC(=O)CSc1nnc(-c2ccco2)n1Cc1ccco1
    i, -0.01
Cc1cccc(NC(=S)NNC(=O)CCn2nc(C)c([N+](=O)[O-])c2C)c1
    i, 0.44
CCn1cc([N+](=O)[O-])c(C(=O)N2N=C(c3ccc(O)c(OC)c3)CC2c2ccccc2O)n1 (configuration not stated)
    i, 0.02
Cc1nnc(NC(=O)NC(C)N2C(=O)C3C4C=CC(C4)C3C2=O)s1 (configuration not stated)
    i, -0.03
COc1ccc(C)cc1NC(=O)CNc1ccc(C(C)=O)cc1
    i, -1.07
COc1ccc(C(=O)c2ncc(C(F)(F)F)cc2Cl)cc1
    i, 0.56
CC(C)c1ccc(Oc2cccc(C(=O)/C(C#N)=C/N(C)C)c2)cc1
    -6.2*, -1.52*

Value order: KCNQ2 inh, KCNQ2 inh baseline
CC(C)CC(=O)Nc1sc2c(c1C(=O)O)CCCCC2
    i, -1.2
CC(C)C(NS(=O)(=O)c1cccc2nsnc12)C(=O)N1CCCCC1 (configuration not stated)
    i, -2.01
CCOC(=O)C1CCN(C(=O)Nc2ccccc2Cl)CC1
    i, 0.31
CN(C)S(=O)(=O)c1cccc(-c2nnc(-c3ccccc3)o2)c1
    i, 0.51
Cc1ccc(SCC(=O)N2c3ccccc3Sc3ccccc32)cc1
    -6.61*, 0.53*
CC(=O)C(C)Oc1ccc(Cc2ncc(C(F)(F)F)cc2Cl)cc1 (configuration not stated)
    i, -1.62
CC(C)NC(=O)c1sc(=S)n2c1[nH]c(=O)c1ccc(C(=O)NCCc3ccc(Cl)cc3)cc12
    i, -0.05
COc1cccc(/C=N/Nc2ncnc3scc(-c4ccccc4)c23)c1OC
    -6.05*, -0.62*
COc1ccc(NS(=O)(=O)c2cccc(NC(=O)c3cnccn3)c2)cc1Br
    i, -1.79
COc1ccc(C(NC(=O)/C=C/c2ccco2)c2ccc(OC)cc2)cc1
    i, 0.39
CCn1c(-c2cccnc2Cl)nc2cc(Cl)c(Cl)cc21
    i, 1.1
O=C(O)CSCC(=O)Nc1ccccn1
    i, 0.73
O=S(=O)(Cc1cc(-c2ccccc2)no1)c1ccccc1
    i, 1.43
Cc1nonc1NC(=O)CSc1nc2cc(Cl)ccc2c2c1CCCC2
    i, -0.46
C=C(C)CNC(=S)N/N=C/c1ccc(NC(C)=O)cc1
    i, 0.43
O=C(COc1ccc(C(=O)c2ccc(F)cc2)cc1)NCc1ccc(F)cc1
    i, -0.46
COC(=O)c1ccc(/C=N\N2CCN(Cc3ccc(C)cc3)CC2)cc1
    i, 2.28
Cc1nc2ccc(NC(=O)NC(=O)c3c(Cl)cccc3Cl)cc2o1
    i, -0.7
OC(CCN1CCC2(CC1)OCCO2)C(F)(F)F (configuration not stated)
    i, -0.09
COc1cccc(OC)c1C(=O)NNC(=O)c1ccccc1-n1cccc1
    i, 2.03

Value order: KCNQ2 inh, KCNQ2 inh baseline
COc1cc(NS(=O)(=O)c2ccc(NC(=S)NC(=O)COc3ccccc3OC)cc2)nc(OC)n1
    i, -1.09
OCCCn1c(C2CCCN2c2nc(-c3ccc(F)cc3)cs2)nc2cc(C(F)(F)F)ccc21 (configuration not stated)
    i, -0.07
O=C(Cc1ccccc1F)Nc1nc(-c2cccs2)cs1
    i, 1.65
O=C(NCc1ccccc1)Nc1cccn(Cc2ccc(Cl)cc2)c1=O
    i, 1.04
O=C(CCN1C(=O)[C@H]2CC=CC[C@H]2C1=O)NCc1nc(-c2ccccc2)no1
    i, 0.02
CC1C=CC(C)C(C(=O)O)C1C(=O)O (configuration not stated)
    i, -0.31
CN(C)N1C(N)=C(C#N)C(c2cccnc2)C2=C1CCCC2=O (configuration not stated)
    i, 1.33
COc1ccc(-c2cc(C3CCN(c4ccc(C(C)=O)cc4[N+](=O)[O-])CC3)[nH]n2)cc1
    i, -0.13
Cc1ccc(S(=O)(=O)CCC(=O)OCc2ccc(S(=O)(=O)C(C)C)cc2)cc1
    i, 0.1
c1ccc(CN2CCN(c3ncnc4c3[nH]c3ccccc34)CC2)cc1
    -8.09*, 0.04*
Cc1c[n+]([O-])cc(C)c1Oc1ccccc1
    i, -0.04
N=c1c2c(-c3ccccc3)c(-c3ccccc3)oc2ncn1CCN1CCOCC1
    i, -1.31
COc1ccc(CN(Cc2ccccn2)C(=O)CN2C(=O)C(C)Oc3ccccc32)cc1 (configuration not stated)
    i, -0.39
Cc1c(Cl)cccc1NC(=O)CSc1nc2c(c(=O)[nH]1)CCCC2
    i, -1.23
COc1ccc(S(=O)(=O)N2CCC(=O)N2)cc1
    i, 0.03
O=C(c1cc([N+](=O)[O-])ccc1N1CCCC1)N1CCCC1
    i, -0.31
O=C(C1=C(O)C(=O)N(Cc2ccco2)C1c1cccc([N+](=O)[O-])c1)c1ccco1 (configuration not stated)
    i, 0.74
O=C(N/N=C/C(Cl)=C\c1ccccc1)c1cccs1
    i, -2.44
CN(Cc1ccc(C(C)(C)C)cc1)C(=O)C1CCN(C(=O)Nc2ccccc2)CC1
    i, 2.56
COc1ccccc1NC(=O)CC1S/C(=N/N=C(\C)C2CCCCC2)NC1=O (configuration not stated)
    i, 0.25

Value order: KCNQ2 inh, KCNQ2 inh baseline
COc1ccc(S(=O)(=O)N2CCCCCC2)cc1N(C)S(=O)(=O)c1ccc(Cl)cc1
    i, -0.22
O=C(CSCc1cccc(CSCC(=O)Nc2ccc3ccccc3c2)n1)Nc1ccc2ccccc2c1
    i, 0.03
CC1Oc2ccccc2C=C1/C=N/NC(=O)[C@@H](C)NC(=O)OC(C)(C)C (some centres not stated)
    i, 0.44
COc1ccc(-c2cc(C3CC3)nc(SCC(=O)c3cccs3)c2C#N)cc1
    i, 0.76
O=C(NCc1ccc(F)cc1Cl)C1CC(=O)N(C2CCCCCCC2)C1 (configuration not stated)
    i, -1.42
COc1cc(OC)c2c(c1)C(=O)OC2
    i, 1.41
COc1cccc(C(=O)N2CCC(C(=O)N3CCN(C)CC3)CC2)c1
    i, -0.2
O=C(NCCc1ccccc1)/C(=C/c1ccco1)c1ccccc1
    i, 0.56
Cc1ccc(S(=O)(=O)N2CCCC(C(=O)NNCC(=O)Nc3cc(F)ccc3F)C2)cc1 (configuration not stated)
    i, -2.3
COc1ccc(S(=O)(=O)NCc2ccc(C)cc2)cc1
    i, 0.69
O=C(Cc1ccc(Cl)cc1)Nc1ccc(N2CCN(C(=O)c3ccco3)CC2)c(Cl)c1
    i, -1.44
COc1ccc(NC(=O)CCC(=O)c2ccc(-c3ccccc3)cc2)cc1
    i, 2.79
CCOc1[nH]n(-c2ccccc2)c(=O)c1C=Nc1ccc(C)cc1
    i, -0.41
c1ccc(-c2nnc(SCc3nc4ccccc4[nH]3)n2Cc2ccco2)nc1
    i, 1.8
COc1ccc(C(=O)NCC(=O)N2CCC3(CC2)NCCc2[nH]cnc23)cc1
    i, 0.38
CCOC(=O)c1sc(NC(=O)CSc2ccccn2)c(C#N)c1C
    i, -1.21
COc1cccc(NC(=O)NCCN2CCCCC2)c1
    i, 2.81
O=C(CCCN1C(=O)c2ccccc2C1=O)Nc1cccnc1
    i, -1.18
CCOC(=O)C1CCN(C(=O)CNS(=O)(=O)c2cccs2)CC1
    i, -1.11
O=C(COC(=O)c1cnccn1)c1ccc2c(c1)CCCC2
    i, 2.17

7 compounds out of the list, ordered by formula weight, highest first:
Value order: KCNQ2 inh, KCNQ2 inh baseline
O=C(CSCc1cccc(CSCC(=O)Nc2ccc3ccccc3c2)n1)Nc1ccc2ccccc2c1
    i, 0.03
COc1ccc(S(=O)(=O)N2CCCCCC2)cc1N(C)S(=O)(=O)c1ccc(Cl)cc1
    i, -0.22
COc1ccc(-c2cc(C3CC3)nc(SCC(=O)c3cccs3)c2C#N)cc1
    i, 0.76
O=C(NCc1ccc(F)cc1Cl)C1CC(=O)N(C2CCCCCCC2)C1 (configuration not stated)
    i, -1.42
CCOc1[nH]n(-c2ccccc2)c(=O)c1C=Nc1ccc(C)cc1
    i, -0.41
O=C(NCCc1ccccc1)/C(=C/c1ccco1)c1ccccc1
    i, 0.56
COc1cc(OC)c2c(c1)C(=O)OC2
    i, 1.41

Returning to the listing, repeating the 2 entries before the break.
Value order: KCNQ2 inh, KCNQ2 inh baseline
CCOC(=O)C1CCN(C(=O)CNS(=O)(=O)c2cccs2)CC1
    i, -1.11
O=C(COC(=O)c1cnccn1)c1ccc2c(c1)CCCC2
    i, 2.17
Cc1cc(C(=O)COc2cccnc2[N+](=O)[O-])c(C)n1Cc1ccco1
    i, 1.47
Cc1oc(-c2ccccc2)cc1C(=O)Nc1cccc2ccccc12
    i, -0.81
O=C(Nc1ccc(N2CCN(C(=O)c3ccccc3)CC2)cc1)c1cccnc1
    i, 0.08
CCOc1ccc2ccccc2c1/C=N/NC(=O)CNC(=O)c1ccccc1O
    i, -0.36
Cc1ccc(NCc2nnc3n2CCCCC3)cc1
    i, 0.62
CC12CN(C(=O)c3cccc([N+](=O)[O-])c3)C3(C#N)CC1CCC23C (configuration not stated)
    i, -1.17
CC(=O)NC(NC(C)=O)c1ccc(Br)cc1
    i, -0.28
O=[N+]([O-])c1cc(S(=O)(=O)C(F)(F)F)ccc1Sc1nc2ccccc2[nH]1
    i, 1.25
CCn1c(SCC(=O)Nc2cccc(OC)c2)nnc1-c1ccc(Cl)cc1
    i, 0.03
Cc1ccc(NC(=O)COc2cccc(-n3cnnn3)c2)cc1[N+](=O)[O-]
    i, -0.76
CCCOc1cccc(C(=O)NC(=S)Nc2cccc(NC(=O)c3ccccc3Cl)c2)c1
    i, -1.71
CC(OC(=O)Cc1coc2cc3c(cc12)CCC3)C(=O)NCc1ccc2c(c1)OCO2 (configuration not stated)
    i, -2.5
CCOC(=O)c1ccc(NC(=O)c2nc[nH]c2C(=O)N[C@H](C)c2ccccc2)cc1
    i, -0.84
COc1cc(C(=O)Nc2ccc(C(=O)O)cc2)ccc1OC(C)=O
    i, -0.47
CCC(C)NC(=O)c1ccccc1SC (configuration not stated)
    i, 4.17
Cc1nn(Cc2ccc(Cl)cc2)c(C)c1NC(=O)c1noc2c1CCCCC2
    i, -0.01

Only part of the results is shown; count on the stated rates, not on these rows.
